Bioassay records as filed in PubChem BioAssay.
gsp agonist = qHTS for Agonist of gsp, the Etiologic Mutation Responsible for Fibrous Dysplasia/McCune-Albright Syndrome: qHTS; gsp mutant cells, cAMP HTRF, 30 min; control for the full effect not named in the record; Potency, µM (series often up to 76.9 µM), for the others: at the highest dose activation (cAMP increase), usual class: activators; hit rate 0.13% among 340,000; AID 624287, 2012; active = well fitted activation curve with a large enough effect; inconclusive = small, poorly fitted or top-dose-only effect, or another doubt; inactive = no such curve, though single readings can be large or run the other way; cell line not stated here;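 also: phosphodiesterase inhibitor Ro 20-1724 added with compounds to block cAMP breakdown; potency is read from the fitted curve at half-maximal effect; nearly all actives have a fitted effect of over 60% in size; about a fifth of the inactives were tested at one dose only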
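Cells stably selected in G418 were plated at 2000/well, grown 16-24 hr, then given compounds in DMSO with the PDE inhibitor […] (300 uM solution added) for 30 min at 37C; cAMP was read by HTRF.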
TRPV1 PAM = HTS Assay for Compounds that Act as Potentiators of the Vanilloid Receptor 1 | Transient receptor potential cation channel subfamily V member 1 (Homo sapiens), Q8NER1 | TRPV1-expressing cells, Fluo-8 calcium influx, capsaicin EC20 potentiation; host cell line not named in the record; control for the full effect not named in the record | potentiation, % at 8.33 µM | hit rate 0.02% among 320,000 | AID 540277, 2011; active means potentiation above 80%; inconclusive means 30% to 80%; inactive means below 30%; also: 0% is about no effect
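TRPV1-expressing cells were cultured overnight at 35.5C and loaded with Fluo-8 calcium dye for 40 to 90 min at room temperature. After a 10 s baseline, compound was added and calcium influx was read kinetically for 3 min (ex 480/em 520 nm).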
Sfp inh = qHTS Assay for Inhibitors of Bacillus subtilis Sfp phosphopantetheinyl transferase (PPTase); 4'-phosphopantetheinyl transferase ffp (Bacillus subtilis), Q9F4F7; Biochemical Sfp PPTase activity, qHTS; Potency, µM, without a hit: max response, negative = inhibition, most hits filed as inhibitors; hit rate 3.5% among 310,000; AID 1490, 2009; active = well fitted inhibition curve with a large enough effect; inconclusive = small, poorly fitted or top-dose-only effect, or another doubt; inactive = no such curve, though single readings can be large or run the other way;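 also: the enzyme is Sfp with the accession as filed and its product quenches rhodamine fluorescence; potency is read from the fitted curve at half-maximal effect; 0% = enzyme reaction without inhibitor and -100% = no enzyme wells; top concentration of the series not given in the record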
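Fluorescence-quenching assay with 15 nM Sfp, 5 uM rhodamine-CoA and 12.5 uM BHQ-2-labelled ybbR peptide in pH 7.6 Hepes/MgCl2 buffer. Enzyme was pre-incubated with compound for 15 min at room temperature. Rate was taken from the 30-min fluorescence change (525/598 nm).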
gsp antagonist = qHTS for Antagonists of gsp, the Etiologic Mutation Responsible for Fibrous Dysplasia/McCune-Albright Syndrome: qHTS; gsp-mutant cells, cAMP HTRF, 30 min; control for the full effect not named in the record; Potency, µM (highest dose often 76.9 µM), for inactives: at the highest dose activity change, negative = inhibition, hits mostly inhibitors; hit rate 0.4% among 340,000; active = falling curve of any shape with a large fitted effect; inconclusive = falling curve, mostly with a smaller effect; inactive = flat or rising curve; cell line not stated here;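 also: intracellular cAMP measured with PDE inhibitor Ro 20-1724 present during compound exposure; potency is read from the fitted curve at half-maximal effect; % is scaled to controls: 0 for no effect and ±100 for the full control effect; nearly all actives have a fitted effect of over 65% in size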
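G418-selected cells were plated in DMEM/10% FBS for 16-24 h at 37C, then treated with compounds plus the PDE inhibitor […] (300 uM solution added) for 30 min at 37C. Intracellular cAMP was measured by HTRF after 30 min lysis at room temperature.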
ClpP mod = qHTS Assay for Activators of ClpP; AID 651965, 2013; Potency, µM (highest dose often 57.5 µM), for the others: at the highest dose activity change, negative = active; purified B. subtilis ClpP, FRET peptide cleavage, 20 min; hit rate 1.9% among 340,000; active = well fitted falling curve with a large enough effect; inconclusive = small, poorly fitted or top-dose-only effect; inactive = no such curve, though single readings can be large or run the other way; also: potency is read from the fitted curve at half-maximal effect; the source files actives as falling curves though it sought activators and does not explain the sign; nearly all actives have a fitted effect of over 65% in size; many hits overshoot -100%
Target sequence (P80244 whole entry, looked up): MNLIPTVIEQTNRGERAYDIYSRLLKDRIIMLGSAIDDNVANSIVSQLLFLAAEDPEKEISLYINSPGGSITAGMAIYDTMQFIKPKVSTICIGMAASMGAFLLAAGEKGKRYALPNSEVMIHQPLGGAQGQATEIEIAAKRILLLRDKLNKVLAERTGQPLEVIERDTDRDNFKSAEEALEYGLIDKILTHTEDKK
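Buffer: 100 mM Tris/HCl pH8, 100 mM KCl, 0.05% low protease BSA, 2.5% glycerol, 0.01% Tween-20. ClpP 10 microg/mL final; 20 min RT; delta FRET normalized to ADEP and DMSO controls.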
Menin-MLL FL inh = qHTS Assay for Inhibitors Targeting the Menin-MLL Interaction in MLL Related Leukemias: Competition With Fluorescein Labeled MLL-derived Peptide | 290,000 tested, under 10 active | FP activity change, % at 61.4 µM | Fluorescence polarization, fluorescein-MLL peptide displacement from menin | AID 1766, 2009; inconclusive = falling polarisation curve, or a change in total fluorescence; inactive = total fluorescence flat and polarisation flat or rising; no compound was filed as active; the % refers to the polarisation; negative = inhibition;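 also: % of control where 0% means no effect; inhibitors lower the polarisation; unlabelled MLL peptide was the positive control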
TRPML1 inh = qHTS for Inhibitors of the Human Mucolipin Transient Receptor Potential 1 (TRPML1); TRPML1-inducible cells, Ca2+ dye fluorescence, FDSS; hits give low values; inhibition of EC80 agonist-evoked calcium signal; activity change, negative = inhibition, % (test concentration not listed); hit rate 0.02% among 390,000; AID 624415, 2012; in the data active means activity change below about -50%; inconclusive means about -30% to -50%; inactive means above about -30%;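 also: stimulus is agonist 54-4 at its EC80 concentration; % is scaled to controls: 0 for no effect and ±100 for the full control effect; compound concentration not given in the record; the text of the record puts the active cut at -80%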
Target sequence (Q9GZU1 whole entry, looked up): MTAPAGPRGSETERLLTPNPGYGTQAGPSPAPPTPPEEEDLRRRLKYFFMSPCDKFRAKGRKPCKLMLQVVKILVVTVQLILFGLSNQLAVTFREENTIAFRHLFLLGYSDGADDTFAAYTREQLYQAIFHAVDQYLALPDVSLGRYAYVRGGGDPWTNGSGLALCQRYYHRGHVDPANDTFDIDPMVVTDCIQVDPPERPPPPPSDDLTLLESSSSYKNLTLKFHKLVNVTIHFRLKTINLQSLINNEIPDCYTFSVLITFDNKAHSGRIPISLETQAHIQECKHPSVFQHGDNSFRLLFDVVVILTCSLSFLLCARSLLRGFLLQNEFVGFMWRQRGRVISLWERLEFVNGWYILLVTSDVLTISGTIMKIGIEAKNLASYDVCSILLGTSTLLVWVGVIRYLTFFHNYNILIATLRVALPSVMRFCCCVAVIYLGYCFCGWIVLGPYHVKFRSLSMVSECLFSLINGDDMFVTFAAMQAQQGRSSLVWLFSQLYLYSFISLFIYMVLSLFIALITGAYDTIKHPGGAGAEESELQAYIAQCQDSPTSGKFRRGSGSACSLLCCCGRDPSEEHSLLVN
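Tet-induced TRPML1-DL cells loaded with Ca8 no-wash calcium dye were read kinetically on FDSS. Compound addition was followed by EC80 agonist 54-4 (4 uM final); inhibition was read over 110 s.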
An asterisk follows results filed as active; ? = inconclusive; . = no result given; & = joins results of further samples; [ ] = another dose, or the depositor's remark. Rows were taken by chance; any-hit rate near 4.9%.

SMILES	gsp agonist	TRPV1 PAM	Sfp inh	gsp antagonist	ClpP mod	Menin-MLL FL inh	TRPML1 inh
CCOc1c(Br)cc(CNc2ccc(N3CCN(C(C)=O)CC3)cc2)cc1OC	-22%	22	-16%	?	1.9%	1.8	9
O=C(CC(CC(=O)c1ccc(Cl)cc1)c1ccccc1C(=O)O)c1ccc(Cl)cc1	0%	1	10%	-10%	-2.4%	2.1	-2
Cc1cc(N/N=C/c2ccccc2Cl)nc(NCc2ccccc2)n1	-21%	-1	?	-8%	-9.0%	-1.5	1
C=CCNCCCCOc1ccc(Br)cc1C	7%[15.4 µM]	12	?	20%	1.5%	.	-6
CCCOC(=O)CCCN1C(=O)/C(=C2\SC(=S)N(CCCC(=O)OCCC)C2=O)SC1=S	-53%[inhibitor]	3	-8%	4%	.	6.7	-5
O=C(O)/C=C/c1cnn(-c2ccccc2)c1	3%[15.4 µM]	-7	18%	1%	.	-5.9	14
CCOC(=O)C(=COC(=O)c1ccccc1)NC(=O)Cc1ccccc1	19%[15.4 µM]	.	.	1%	0.7%	.	15
COc1cc(NC(=O)Cc2ccc(S(=O)(=O)N3CCOCC3)s2)c(OC)cc1Cl	-5%[15.4 µM]	2	.	?	-24%	.	4
O=C(C1=NN(c2ccccc2)C2C(=O)N(c3ccccc3)C(=O)C12)c1ccccc1 (stereo not given)	4%	0	12%	-12%	-1.0%	?	-14
Cn1c(=O)c2c(ncn2CC(=O)OCC(=O)Nc2ccc(F)cc2F)n(C)c1=O	5%	4	.	20%	0.8%	.	-5
COc1ccccc1CNC(=O)CCNS(=O)(=O)c1ccc2c(c1)oc(=O)n2C	2%	-14	16%	4%	-1.9%&0.5%	.	18&9
O=C(COc1ccc([N+](=O)[O-])cc1Cl)N1CCc2ccccc21	-54%[inhibitor]	.	.	?	3.4%	.	30
Cc1cc(C)n(-c2ccc(C(=O)OCC(=O)Nc3cc(S(C)(=O)=O)ccc3Cl)cc2)n1	-3%	-2	.	-15%	-0.2%	.	-8
Cc1nn(CC(=O)c2ccc(Br)s2)c(C)c1[N+](=O)[O-]	16%	-14	-18%	4%	-0.7%	9.7	7
COc1cc(C#Cc2c(-c3ccccc3OC)oc3ccccc23)cc(OC)c1	?	17	.	-1%	3.3%	.	-16
COc1ccc(C(=O)COC(=O)Cc2c[nH]c3ccccc23)c(OC)c1	25%	4	.	-9%	3.2%	.	23
C#CCN1CC(C)/C(=N/O)CC1C (stereo not given)	?	-10	-10%	5%	-2.6%	-3.9	2
COc1cccc(C(=O)NCc2nnc(SCC(=O)Nc3nccs3)n2-c2ccccc2)c1	6%	1	18%	-3%	2.9%	2.2	-2
O=S(=O)(Cc1noc(-c2ccccc2Cl)n1)c1ccccn1	4%[15.4 µM]	?	15%	10%	-1.3%	1.0	-12
COc1ccccc1/C=C(\C#N)C(=O)Nc1ccc(S(N)(=O)=O)cc1	4%	-2	-5%	-9%	.	-0.1	18
CN(c1ccccc1)S(=O)(=O)c1cccc(NC(=O)c2cncc(Br)c2)c1	-22%	-6	8%	-16%	-2.4%	5.6	.
Cc1nnc(SCC(=O)NCc2ccccc2Cl)[nH]c1=O	2%	19	3%	9%	.	3.8	-6
O=C(COc1cccc(NC(=O)c2cccc([N+](=O)[O-])c2)c1)c1ccc(Br)cc1	-42%[inhibitor]	-9	12%	-12%	-22%	-4.4	-2
Cc1ccc(C(=O)OCC(=O)NCc2cccs2)cc1S(=O)(=O)N1CCOCC1	-22%[15.4 µM]	-12	2%	-5%	.	-0.5	-2
Cc1ccc(C(=O)NC(C)c2ccccc2)o1 (stereo not given)	0%	-34	-3%	8%	-0.2%	0.0	10
CC(C)N(Cc1ccccc1)C(=O)COC(=O)C1CCN(c2ccc(C(F)(F)F)cn2)CC1	-39%[inhibitor]	-20	.	-3%	-24%	.	52
COc1ccc(OCC(=O)NC2CCCN(Cc3ccc(Cl)cc3)C2)cc1 (stereo not given)	22%	-17	-3%	-3%	0.1%	.	-7
CCn1c(Cc2ccccc2)nnc1SCC(=O)Nc1ccc(OC)cc1	-5%	1	7%	7%	-2.3%	2.5	-2
CC(=O)Nc1ccc(-c2nc3ccccc3c(=O)o2)cc1	25%[15.4 µM]	16	11%	-2%	.	3.6	19
CC(C)(C)OC(=O)N/N=C\c1ccc(OC(=O)c2ccco2)cc1	1%[15.4 µM]	-3	12%	-4%	.	0.7	11

Three compounds already listed, sorted by molecular weight, lowest first:
SMILES	gsp agonist	TRPV1 PAM	Sfp inh	gsp antagonist	ClpP mod	Menin-MLL FL inh	TRPML1 inh
CC(=O)Nc1ccc(-c2nc3ccccc3c(=O)o2)cc1	25%[15.4 µM]	16	11%	-2%	.	3.6	19
CC(C)(C)OC(=O)N/N=C\c1ccc(OC(=O)c2ccco2)cc1	1%[15.4 µM]	-3	12%	-4%	.	0.7	11
COc1ccc(OCC(=O)NC2CCCN(Cc3ccc(Cl)cc3)C2)cc1 (stereo not given)	22%	-17	-3%	-3%	0.1%	.	-7

The listing picks up; the two compounds before the break are reprinted first.
SMILES	gsp agonist	TRPV1 PAM	Sfp inh	gsp antagonist	ClpP mod	Menin-MLL FL inh	TRPML1 inh
CC(=O)Nc1ccc(-c2nc3ccccc3c(=O)o2)cc1	25%[15.4 µM]	16	11%	-2%	.	3.6	19
CC(C)(C)OC(=O)N/N=C\c1ccc(OC(=O)c2ccco2)cc1	1%[15.4 µM]	-3	12%	-4%	.	0.7	11
COc1ccccc1C(=O)N1CCCC(c2nc(-c3cc(OC)c(OC)c(OC)c3)no2)C1 (stereo not given)	-11%	13	12%	-3%	-2.3%	0.5	-6
Cc1nc(C(=O)N2CCOCC2)sc1C1(C)CC(c2ccccc2)=NO1 (stereo not given)	.	-8	6%	9%	-3.2%	-0.2	1
O=C(NC(=S)Nc1cccc(Cl)c1Cl)C1CC1	-4%	-1	-4%	-1%	-1.4%	0.3	-4
CCn1cc(CN2CCC(C(=O)Nc3ccc(Oc4cccnc4)cc3)CC2)c(C)n1	-4%[15.4 µM]	18	11%	9%	-1.2%	.	12
COc1cc(OC)cc(C(=O)N(Cc2nc(-c3cccc(C)c3)no2)C(C)C)c1	23%	9	7%	-11%	0.6%	-0.6	-8
COc1ccc(N2C=C3C(=O)C(C)(OC(=O)CCc4ccccc4)C(=O)C=C3C=C2c2ccc(C#N)cc2)cc1 (stereo not given)	.	-23	-1%&4%	-16%	-0.4%	3.4[11.7 µM]	20
C[C@@H]1O[C@@H](Oc2c(-c3ccc(O)c(O)c3)oc3cc(O)cc(O)c3c2=O)[C@H](O)[C@H](O)[C@H]1O	18%	.	.	4%&13%	-1.2%&-2.2%	.	8&-1
CCSC1C(=O)N(C)C(SCC)C(=O)N1C (stereo not given)	-47%[inhibitor]	.	.	.	-3.5%	.	-4
CCCCn1nnnc1NCc1cccnc1	20%	-3	-3%	2%	-2.6%	0.9	-8
O=C1c2ccccc2C(=O)N1CC#CCN1CCN(C2CCCCC2)CC1	?	5	5%	1%	-3.1%	0.5	19
CCCC[N+](CC#CCO)(CC#Cc1ccccc1)CCCC	-10%[15.4 µM]	-7	7%	10%	-1.4%	0.4	-5
CC(C)NC(=O)[C@]1(C)CCC[C@@]2(C)C3CC[C@@]4(C)C[C@]3(CCC21)CC4=O (stereo not given in full)	-5%	-8	.	4%	-0.3%	.	4
C/C(=N\NC(=O)CSCc1ccc([N+](=O)[O-])cc1)c1cccc(Br)c1	-35%[inhibitor]	4	-9%	-20%	-1.7%	3.0	-12
Cc1cc(C)cc(N(CC(=O)NC2CC3CCC2C3)S(C)(=O)=O)c1 (stereo not given)	-9%	-6	17%	10%	-1.7%	-1.4	23
CSc1nc(O)c(C(c2ccc(OC(C)C)cc2)c2c(O)nc(SC)[nH]c2=O)c(=O)[nH]1	-12%[15.4 µM]	.	.	0%	1.2%	.	3
Fc1cccc(F)c1-n1c(CN2CCCC2)csc1=S	-3%[15.4 µM]	23	12%	11%	.	7.5	0
COc1ccc(CN(C(=O)c2ccco2)C2CC(C)N(C)CC2C)cc1 (stereo not given)	-12%	16	-4%	4%	0.1%	-4.0	1
O=C(c1ccc2c(=O)n3c(nc2c1)CCCCC3)N1CCc2ccccc21	-19%	?	8%	-8%	1.0%	3.6	15
Cc1cccc(S(=O)(=O)N2CN(Cc3ccco3)c3nc4ccccc4nc32)c1	-2%	6	?	-12%	-22%	-0.4	7
Cn1nc(C(=O)NNC(=O)c2ccc(Cl)c(S(N)(=O)=O)c2)c2ccccc2c1=O	-3%[15.4 µM]	-3	.	4%	.	.	-4
C=C(C)CN(CC)c1nc(N)c(C#N)c(CC#N)c1C#N	24%	15	-2%	-4%	-6.3%	?	-6
CC(C)c1nnc(NC(=O)CCC(=O)NC2CCCCCCC2)s1	-7%	10	-3%	-4%	-0.5%	-1.8	-7
COCc1nnc(NC(=O)c2cc(Cl)ccc2OC)s1	2%	2	-4%	12%	-12%	-4.5	3
COc1ccc(OC)c(S(=O)(=O)Nc2cc(Cl)cc(Cl)c2)c1	?	-4	15%	-12%	0.5%	-0.3	-2
Cc1ccccc1OCC(=O)Nc1nnc(C2CCCC2)s1	-14%	11	14%	8%	0.2%	.	-2
CC(C)N(C(=O)COC(=O)c1ccc(O)cc1)C(C)C	-34%[inhibitor]	3	7%	6%	-0.8%	-4.9	0
